# Source: PubChem (Broad Institute)
# Tg IFNy HTS – T. gondii growth inhibition under IFN-gamma | Toxoplasma gondii growth in IFN-gamma-treated host cells; stronger effect = lower value; reference of the scale not given here | activity change, negative = inhibition, %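 (about 20 µM by stock and volumes)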 | actives 3.8% (n = 69,000) | AID 1259416;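 active = below -70%; inconclusive = fit judged invalid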;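 also: host cells are HeLa cells infected with Toxoplasma gondii; parasite growth read as luciferase light; one replicate is shown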
# Numbers without * were called inactive; i = inactive; ? = inconclusive; & = joins results of further samples; ! = a repeat was not active. An excerpt (hit frequency here may not be typical).
SMILES,Tg IFNy HTS
CCc1nc(SCC(=O)NCc2nc(C)cc(C(F)(F)F)n2)n[nH]1,-2.5
COc1cccc(C(=O)Nc2ccc3c(c2)C(=O)N(C)[C@@H]2CC[C@H](CC(=O)NCc4ccc(F)cc4)O[C@H]2CO3)c1,-15.1
C[C@H]1CCCCO[C@H](CN(C)C(=O)c2ccncc2)[C@@H](C)CN([C@@H](C)CO)C(=O)c2cc(NC(=O)CCC(F)(F)F)ccc2O1,-7.3
Cc1ccc(NC(=O)N(Cc2ccco2)Cc2cc3cc4c(cc3[nH]c2=O)OCCO4)cc1,-4.8
C=C1C(C)(C)[C@H]2CC[C@]1(C(=O)NCCc1nc3ccccc3c(=O)[nH]1)C2,19.6
Nc1c(-c2ccc(Cl)cc2)cnn1-c1ccccc1,333.8
O=C1C[C@@H](c2ccccc2)C(=O)N[C@H](c2ccc(F)cc2)C/C=C\CCN1,-27.8
COc1ccc2c3c(n(C)c2c1)[C@H](CO)NCC31CCN(Cc2ccncc2)CC1,-9.8
O=C1CNC(=O)N1Cc1nc(CCc2ccccc2)n[nH]1,-22.2
CO[C@H]1CN(C)C(=O)c2cc(NC(=O)Nc3c(C)noc3C)ccc2OC[C@H](C)NC[C@H]1C,-1.3
COc1ccc(N2CCN(C(=O)Cc3ccc(C)cc3)CC2)cc1,-36.7
CN(Cc1cnn(C)c1)Cc1nc(-c2cccnc2)no1,3.8
COc1ccc(S(=O)(=O)N2CCc3nc(-c4ccc(OC)c(OC)c4)sc3C2)cc1,-32.1
O=C1CCc2cc(NC(=O)C3CC3)ccc2N1,-2.9
O=c1cc(-c2ccccc2)oc2cccc(O)c12,-61.1
CCOC(=O)c1ccccc1NC(=O)N1CCC2(CC1)Nc1cc(F)ccc1-n1cccc12,52.3
O=C(c1cccs1)N1CC[C@H]2C[C@@H](c3nnc(C4CC4)o3)O[C@H]2C1,-4.2
COCC(=O)N[C@H]1CN(Cc2scnc2C)C[C@H]2CCCO[C@H]21,-81.2*
CNc1ccccc1C(=O)NC(C)(C)C,87.8
CC(=O)[C@H]1CC[C@H]2[C@@H]3C=CC4=CC(=O)CC[C@@]4(C)[C@@H]3CC[C@]12C,4.9
O=C(NC1CCCC1)N1CCCCN2[C@H](CO)[C@@H](c3ccc(-c4cccnc4)cc3)[C@H]2C1,-30.3
CC(C)n1ccnc1CN(C)Cc1cnn(-c2ccc(F)cc2)c1,-8.9
O=C(NC(=S)N1CCOCC1)c1cc2ccccc2o1,31.6
CCN1CCCC1CNC(=O)Cn1c2ccccc2c2cnn(C)c(=O)c21 (stereo not given),-30.0
COc1ccc(-c2nc(C)c(CCNC(=O)Cc3ccc(F)cc3)s2)cc1OC,i
# More compounds:
SMILES,Tg IFNy HTS
Nc1ccccc1NC(=O)c1ccc(CNc2nccc(-c3cccnc3)n2)cc1,-79.3*!
CCOC(=O)c1oc2ccc(S(=O)(=O)Nc3ccc4[nH]c(=O)[nH]c4c3)cc2c1C,75.3
CCC(=O)N1CC(=O)N2[C@H](CO)[C@@H](c3ccc(C#CCC(C)C)cc3)[C@@H]2C1,11.6
COc1ccc(-n2ccnc2-c2ccc(C3CCCCO3)o2)cn1 (stereo not given),-4.1
O=C(Nc1cc(F)cc(F)c1)c1c(O)c2cccnc2n(-c2cccc(F)c2)c1=O,-106.3*
COc1ccc2c3c([nH]c2c1)[C@H](CO)N(C(=O)Nc1ccc(F)cc1)CC31CCN(C(=O)Nc2ccc3c(c2)OCO3)CC1,i
CCC(CC)n1ncc(C)c1NC(=O)COc1cccnc1,-42.8
CCOc1ccc(C2CC(=O)Nc3snc(C)c32)cn1 (stereo not given),12.5
Cn1nnc2cc(C(=O)N3CCC4(CCCO4)CC3)cnc21,10.7
OC(CN1CCNCC1)Cn1c2ccc(Br)cc2c2cc(Br)ccc21 (stereo not given),-73.5*
COc1cccc(C(NS(=O)(=O)c2cc(C)c(C)cc2OC)c2nccn2C)c1 (stereo not given),-48.2
C[C@@H]1CCCCO[C@@H](CN(C)C(=O)c2ccncc2)[C@H](C)CN([C@@H](C)CO)C(=O)c2cc(NS(=O)(=O)c3cccs3)ccc2O1,-68.6
CC(=O)N1CCN(C(=O)C(=O)NCCc2sc(-c3ccccc3)nc2C)CC1,140.3
CC1CCCN(c2ncc(-c3ccc4c(c3)OCO4)c(-c3cccnc3)n2)C1 (stereo not given),-30.7
CS(=O)(=O)N1CCC2(CC1)COCCN(c1cccnc1)C2,-3.1
Cc1cc(CN(C)Cc2c(-c3ccccc3)nn(C)c2C)n[nH]1,6.2
COc1c(F)cc(-c2c(-c3ccccc3)ncn2CCO)cc1Cl,-55.4
CCCNC(=O)N1C[C@@H](C)[C@@H](OC)CN(C)C(=O)c2ccc(NC(=O)CC)cc2OC[C@H]1C,33.8
Cc1ccc(CNS(=O)(=O)c2cc3c4c(c2)CCC(=O)N4CCC3)cc1,134.4
CC(C)CNC(=O)[C@H]1C[C@H]2CN(CC3CC3)C[C@H]1O2,77.3
CCc1ccc(-c2nccn2Cc2ccc3c(c2)OCO3)nc1,200.3
COc1cccc(NC(=O)C[C@H]2CC[C@@H]3[C@@H](COc4ccc(NC(=O)C5CC5)cc4C(=O)N3C)O2)c1,-9.8
CCc1ccc(S(=O)(=O)N2CC(C(=O)Nc3ccccc3)C3(CCOCC3)C2)cc1 (stereo not given),1.9
CC(Cc1ccncc1)NC(=O)C(C)(C)NC(=O)c1cccs1 (stereo not given),2.5
OCCn1c(-c2cccc(-n3cccn3)c2)nc2ccccc21,-45.1

# Arranged by SMILES length (ascending): part of the list above.
SMILES,Tg IFNy HTS
CCOc1ccc(C2CC(=O)Nc3snc(C)c32)cn1 (stereo not given),12.5
COc1c(F)cc(-c2c(-c3ccccc3)ncn2CCO)cc1Cl,-55.4
OC(CN1CCNCC1)Cn1c2ccc(Br)cc2c2cc(Br)ccc21 (stereo not given),-73.5*
Cc1ccc(CNS(=O)(=O)c2cc3c4c(c2)CCC(=O)N4CCC3)cc1,134.4
CC1CCCN(c2ncc(-c3ccc4c(c3)OCO4)c(-c3cccnc3)n2)C1 (stereo not given),-30.7
CCc1ccc(S(=O)(=O)N2CC(C(=O)Nc3ccccc3)C3(CCOCC3)C2)cc1 (stereo not given),1.9

# Next part:
SMILES,Tg IFNy HTS
CN1Cc2ccccc2CC2(CCN(S(=O)(=O)N(C)C)CC2)C1=O,2.5
CC(C)NC(=O)c1ccc2ncnc(N3CCCC3)c2c1,-16.2
CCCc1nnc(NC(=O)CSc2nc(-c3cccc(OC)c3)c(C#N)c(=O)[nH]2)s1,-10.0
COc1ccccc1-c1ccccc1CN1CCN(S(=O)(=O)N2CCCC2)CC1,14.4
CN1c2ccc(C#Cc3cccnc3)cc2[C@@H]2[C@@H](CCN2C(=O)c2cccc(F)c2)[C@@H]1CO,-52.8
COc1ccc(OCC(=O)N2CCC3(CC2)Nc2cc(F)ccc2-n2cccc23)cc1,60.6
Cc1cc(NC(=O)c2cc(C)oc2C)on1,22.7
CCCCC(=O)Nc1ccc(C)cc1NC(=O)c1ccncc1F,-23.3
COCC(=O)N1CCC2(CC1)CC(c1cccnc1)C(=O)N2 (stereo not given),8.2
CSc1cc(=O)c2ccccc2s1,12.8
Cc1nc(CC(NC(=O)Cn2nnc3ccccc32)c2ccc(Cl)cc2)cc(=O)[nH]1 (stereo not given),-4.0
CCn1c(C2CCNCC2)nn(Cc2csc(-c3ccccc3)n2)c1=O,16.4
CO[C@@H]1CN(C)C(=O)c2ccc(NS(=O)(=O)CC(F)(F)F)cc2OC[C@@H](C)N(Cc2nccs2)C[C@H]1C,127.9
CN(CCC(O)c1ccccc1)c1cc(N2CCOCC2)ncn1 (stereo not given),-3.5
CCc1ccccc1NC(=O)Cn1ncc2c(N3CCCCCC3)ncnc21,18.7
CC(=O)c1nc(-c2cccs2)n(-c2ccc(C)cc2)n1,11.2
O=C(NCC1(c2cccc(F)c2)CCOCC1)c1cn2c(n1)CNCC2,1.4
CCCN(CC1CCCO1)C(=O)c1ccc(-n2cccc2)cc1 (stereo not given),0.2
CC(=O)c1ccc(C(=O)N2CCn3c(C(N)=O)cnc3C2)s1,-3.3
CCN(C[C@H]1[C@H](c2ccccc2)[C@@H](CO)N1C(C)=O)C(=O)NC1CCCC1,-44.0
Cc1ccccc1-c1ccc(C2[C@@H]3CN(C(=O)C4CCOCC4)C[C@H]2N3)cc1 (stereo not given in full),-42.5&-42.9
CCn1c(C2CCCN(C3CCN(c4ccccc4)CC3)C2)nn(C)c1=O (stereo not given),6.9
COc1ccc(OC)c(S(=O)(=O)Nc2ccc(-c3nc(-c4ccc(C)c(C)c4)co3)cc2)c1,33.2
Cc1ccc(NC(=O)CSc2nnc(CCc3nc4ccccc4[nH]3)n2C)cc1Cl,8.7
CC(C)(C)[S@@](=O)N1Cc2cc(C(=O)N[C@@H]3CCN(Cc4ccccc4)C3)nc(-c3cccc(-c4cccnc4)c3)c2[C@H]1CCO,-37.1
# Going on with the list.
SMILES,Tg IFNy HTS
COc1cc(NC(=O)CCC(=O)O)nc(OC)n1,-30.3
COC(=O)c1cccc(NC(=O)COC(=O)CSc2nc(C)cc(C)n2)c1,2.9
O=C(c1ccccc1C1CCNC1)N1CCc2sccc2C1 (stereo not given),-12.3
O=C(C[C@H]1C=C[C@H](NC(=O)CCN2CCCCC2)[C@H](CO)O1)Nc1nccs1,75.2
CC(C)c1noc(-c2cc(=O)n(CC(=O)NCc3ccc(Cl)cc3)c3ccccc23)n1,-23.2
CCSc1nccc(C(F)(F)F)c1C(=O)NCc1ccc(Cl)cc1Cl,-67.0
CC(=O)NCC(=O)N1[C@@H]2CC[C@H]1c1ccc(Nc3ncc(C(F)(F)F)c(NC4CCC4)n3)cc12,-73.9*
Cc1nc(C)n(CC(C)C(=O)Nc2cc3c(C)cc(=O)oc3cc2C)n1 (stereo not given),4.5
O=C(c1cccc(-n2cccn2)c1)N1CC(=O)N(C2CCCCC2)CC(OCc2ccccn2)C1 (stereo not given),12.8
C[C@@H]1CN([C@@H](C)CO)C(=O)c2cc(/C=C/c3ccccc3)cnc2O[C@H]1CN(C)S(=O)(=O)c1ccccc1F,?
CC(C)N1CCC(c2nc3ccc(-c4ccnn4C)cn3n2)CC1,-2.8
CC(=O)N(C)Cc1cc(C2CCC(CN(C)CC3=CCCOC3)CC2)nn1C (stereo not given),-0.3
C[C@H](CO)N1C[C@H](C)[C@@H](CN(C)S(=O)(=O)c2ccc(-n3cccn3)cc2)OCc2cn(nn2)CCCC1=O,-29.3
CC(N)C(=O)OC(C)(C)Cc1ccc(Cl)cc1 (stereo not given),-57.9&23.3
CCNc1ncc(C(=O)N(C)Cc2ccsc2)cn1,-1.1
O=C(CCCCCCCC(=O)c1ccccc1)c1ccccc1,10.4
N#Cc1cccc(CN2CCn3cc(Cn4cccn4)nc3C2)c1,-0.2
CC(=O)N1CCC2(CC1)OC(=O)C(C)=C2C(=O)NCCCN1C(C)CCCC1C (stereo not given),25.0
O=C(CN1C(=O)CCc2cc(S(=O)(=O)N3CCCC3)ccc21)N1CCC2(CC1)OCCO2,29.1
O=C(Nc1ccccc1F)N[C@H]1CC[C@@H](CCNC(=O)C2CC2)O[C@@H]1CO,-28.1
CN1CCC(N(CCc2ccccc2)C(=O)c2cnc(N3CCCCC3)nc2)CC1,-89.6*
N#Cc1c(=N)nc2oc3ccc(Cl)cc3c3c(C#N)c(N)[nH]c1c23,-75.1*
Cc1cc(-c2nccn2Cc2cc(-c3cccnc3)no2)oc1C,-2.5
CCn1ccc(C(=O)Nc2ccccc2Cl)n1,1.7
COc1ccc(CCCC(=O)N2CCNC(C(=O)O)C2)cc1 (stereo not given),4.5
# (list continues)
SMILES,Tg IFNy HTS
CSc1ccc(-c2noc(-c3c(O)c4ccc(F)cc4[nH]c3=O)n2)cc1,0.2
Cc1ccc(-c2ccccc2-c2ccccc2)nn1,-18.1
Cc1ccnc(NC(=O)C(C)c2cccc(C(=O)c3ccccc3)c2)c1 (stereo not given),47.7
N#C[C@H]1[C@@H](c2ccccc2C2=CCCCC2)[C@H](CO)N1C(=O)CN1CCOCC1,-20.2
COc1ccccc1S(=O)(=O)N1CC[C@@H]2[C@H]1c1cc(-c3cccc(C#N)c3)ccc1N(C)[C@H]2CO,-52.1
CCOc1ccccc1CNc1nc(-c2ccc(Cl)cc2)nc2ccccc12,-18.8
Cc1nc(CCC(=O)N2Cc3cnc(-c4ccccc4)nc3C2)n[nH]1,-4.3
CN(CCc1ccccn1)c1ncccc1CNC(=O)c1ccc2nc[nH]c2c1,-2.8
Cc1cc2cc(NC(=O)CCc3ccc(S(N)(=O)=O)cc3)cc(Cl)c2o1,8.0
CCc1ncnc2c1CCN(C(=O)CCc1ccccc1)CC2,-25.5
c1cncc(-c2nc(CCNC3CCC4(CCNCC4)CC3)cs2)c1,-1.7
Cc1nc(-c2cc(S(=O)(=O)NCCCN3CCC(C)CC3)c(C)s2)sc1C,-39.4
O=C(CNCC(c1ccco1)N1CCCC1)Nc1cnccn1 (stereo not given),0.4
c1ccc2nc3c(cc(N4CCOCC4)c4ccccc43)nc2c1,-103.7*
CC12CN3CC(C)(CN(C1)C3c1ccc(Cl)cc1Cl)C2=O (stereo not given),-8.9
CN(C)CC(C)(C)Cn1cnc(-c2ccccc2)c1-c1cnn2cccnc12,1.9
O=S(=O)(Cc1noc(-c2cc(Cl)cc(Cl)c2)n1)c1ccc(Cl)cc1,-87.5*
CN1CCN(c2ccc3ccc(C(=O)CCN4CCOCC4)cn23)CC1,0.4
CCS(=O)(=O)N1CCc2nc(N3CCCC3)nc(N(C)C)c2CC1,-23.0
COc1ccc2c(c1)NC1(CCN(S(=O)(=O)c3ccccc3Cl)CC1)c1cccn1-2,16.6

# Rewritten as labelled records: 4 of the compounds above
CC(=O)N(C)Cc1cc(C2CCC(CN(C)CC3=CCCOC3)CC2)nn1C (stereo not given)
  Tg IFNy HTS: -0.3

C[C@H](CO)N1C[C@H](C)[C@@H](CN(C)S(=O)(=O)c2ccc(-n3cccn3)cc2)OCc2cn(nn2)CCCC1=O
  Tg IFNy HTS: -29.3

CC(N)C(=O)OC(C)(C)Cc1ccc(Cl)cc1 (stereo not given)
  Tg IFNy HTS: -57.9&23.3

CCNc1ncc(C(=O)N(C)Cc2ccsc2)cn1
  Tg IFNy HTS: -1.1
